# Proteasome disasm: inhibitors of ATP-driven 26S proteasome dissociation, primary screen, biochemical, bead-based flow cytometry, GFP-tagged proteasome. inhibition of disassembly, % (concentration not given with the values). anti-FLAG beads, GFP-proteasome disassembly. actives 0.2% (n = 24,000). AID 751, 2007;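 active = above 40%; inconclusive = likely self-fluorescent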;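 also: plate controls were ATP control with full disassembly for no effect and ATP-gamma-S intact proteasomes for full effect; higher percent means more bead fluorescence retained so stronger block of disassembly; stock transfer was 100 nL into about 10 µL; wells with too few beads may also be inconclusive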
# VCAM-1 rise: enhancers of VCAM-1 display on endothelial cells, cell-based, plate reader, pooled HUVEC, TNFa stimulus (AID 455); HUVEC TNFa-induced VCAM-1 immunofluorescence, plate reader; numbers were filed only for top-ranked candidate wells; augmentation, % at 5 µM; actives 0.2% (n = 10,000);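 active = a compound raising TNF-alpha-driven VCAM-1 surface staining, with its hit status upheld on visual or statistical review; inactive = the rest, including hits rejected on review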;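 also: 0% = TNFa with vehicle and 100% = strongest image-checked hit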
# Starred values were filed as active, the others as inactive; i = inactive; u = inconclusive; x = no result given.
Proteasome disasm	VCAM-1 rise	SMILES
0.2	x	COC(=O)C1CCC(C)(C(=O)Nc2ccccc2)C1(C)C (configuration not stated)
0.7	i	CCCOc1ccc(N2C(=O)CC(SCCN)C2=O)cc1 (configuration not stated)
-3.7	x	Cc1nn(C)cc1CNC(=O)CCC(=O)O
-2.4	i	CN1C(=O)C2(NCCc3c2[nH]c2ccccc32)c2ccccc21 (configuration not stated)
1.7	i	Cc1ccc(O)c(C(CC(=O)N2CCCC2)c2ccccc2)c1 (configuration not stated)
1.7	x	COc1cc(NC(=O)Cc2ccc(Cl)cc2)ccc1NC(=O)c1ccco1
0.2	x	O=C(NCCc1ccccc1)c1noc2c1CCCCC2
0.1	x	COc1ccc(OC)c(S(=O)(=O)Nc2ccc(CC(=O)O)cc2)c1
-0.6	x	Cc1cc2ncn(C3CC(=O)N(Cc4ccc(N5CCCC5=O)cc4)C3=O)c2cc1C (configuration not stated)
0.0	x	COc1cccc(-c2nc(CS(=O)(=O)CC(=O)NCCCOC(C)C)c(C)o2)c1
0.7	x	COC(=O)c1ccc(N2CCOCC2)c(NC(=O)Nc2cccc(OC)c2)c1
2.8	i	CCOC(=O)c1nnc2cc(-c3ccc(Br)cc3)nn2c1C
0.4	x	CC1CCc2c(C(=O)NCC3CCCO3)csc2C1 (configuration not stated)
1.6	x	Cc1nn(C(C)C(=O)O)c2ccccc12 (configuration not stated)
3.9	x	COc1ccc(N2C(=O)C3CCCN3C2c2ccccc2)cc1Cl (configuration not stated)
-2.2	x	O=C(CCN1C(=O)C2C3C=CC(C3)C2C1=O)NCC1CCCO1 (configuration not stated)
0.7	x	CCOc1ccc(OCC)c(NC(=O)CN(C)S(=O)(=O)c2cnc[nH]2)c1
-0.1	i	COc1cccc(-n2c(SCC(=O)N3CCCC3)nc3c([nH]c4ccccc43)c2=O)c1
-0.8	i	COCCn1c(SCC(=O)N(C(C)C)C(C)C)nnc1-c1cc2ccccc2cc1O
-1.0	x	CCOc1ccccc1NC1c2ccccc2C(=O)N1c1cccnc1 (configuration not stated)
1.1	x	CC(NC(=O)c1ccncc1)C(c1cccs1)N1CCOCC1 (configuration not stated)
0.0	x	CCOC(=O)N1CCC(NC(=O)CN2C(=O)CSc3nc(C)cc(C)c32)CC1
-0.8	x	CC1CCN(C(=O)Cc2nn(C)c(=O)c3ccccc23)CC1
1.4	i	CC(Oc1ccc(Br)cc1)C(=O)N1CCc2ccccc21 (configuration not stated)
-1.1	x	CC(C)(C)OC(=O)N1CCNc2ccccc2C1
-0.5	x	Cc1ccc(C(=O)Nc2c(C(=O)NCc3ccco3)cnn2-c2ccccc2)cc1
-0.6	i	Cc1ccc2c(c1)NC(=O)C(CC(=O)NCCCN1CCN(c3cc(Cl)ccc3C)CC1)O2 (configuration not stated)
-1.1	x	COCCN1C(=O)c2ccccc2C(C(=O)NCc2ccco2)C1c1c[nH]c2ccccc12 (configuration not stated)
1.1	i	COc1cccc(C(=O)OCn2nnc3ccccc3c2=O)c1OC
-1.1	x	CCCCn1c(=S)[nH]c2ncccc2c1=O
0.5	i	CCOc1ccccc1NS(=O)(=O)c1c(C)noc1C
-0.2	x	CC(C)CNC(=O)c1cc(-c2ccc(Br)cc2)on1
-1.0	x	COc1ccc(N=C2CCCN2CC(N)=O)cc1
0.0	x	CC1(C(=O)NC2CCCC2)CCC(=O)N1Cc1cccs1 (configuration not stated)
-1.5	x	Cn1c(CCNC(=O)C(C)(C)C)nc2ccccc21
2.5	x	O=C(CNC(=O)Cn1ccc2ccccc2c1=O)NCCCN1CCCCCC1
0.8	i	O=C1c2ccccc2C(Nc2ccc(F)cc2F)N1CCN1CCOCC1 (configuration not stated)
-1.1	i	CC(=O)OCC1OC(c2ccccc2)C(OC(C)=O)C(OC(C)=O)C1OC(C)=O (configuration not stated)
0.3	x	Cc1[nH]nc2c1C(c1ccc(OC(=O)c3ccco3)cc1)C(C#N)=C(N)O2 (configuration not stated)
0.6	i	O=C(C1CCCO1)N1CCN(S(=O)(=O)c2ccccc2)CC1 (configuration not stated)
-0.2	i	CC(NC(=O)c1ccco1)C(c1cccs1)N1CCN(c2ccc(F)cc2)CC1 (configuration not stated)
0.3	x	C=CCOc1cccc(C2c3c(oc4ccc(F)cc4c3=O)C(=O)N2CCCN2CCOCC2)c1 (configuration not stated)
-0.2	i	Cc1ccccc1-n1c(Cn2c(=O)sc3ccccc32)nnc1SCC(=O)N1CCCC1
-0.3	i	O=C(NCc1ccccn1)c1cc(-n2cnnc2)ccc1Cl
2.0	i	Cc1ccccc1NC(=O)N1C2CCCC1CC(NC(=O)C1CC1)C2 (configuration not stated)
0.4	i	COc1ccccc1CC1(C)NC(=O)N(CC(=O)Nc2cc(C)on2)C1=O (configuration not stated)
-4.2	i	CCOCCCNCC(=O)N1CCN(S(=O)(=O)c2ccc(C)cc2)CC1
2.1	x	COc1ccc(C(=O)O)cc1F
-2.8	x	Cc1noc(C)c1S(=O)(=O)N1CCCC(C(=O)Nc2nccs2)C1 (configuration not stated)
-2.5	i	CCN1C(=O)C2(C(C#N)=C(N)Oc3n[nH]c(C(C)C)c32)c2ccccc21 (configuration not stated)

# Additional records.
Proteasome disasm	VCAM-1 rise	SMILES
0.8	x	CCOC(=O)CSC1=NC(=O)CS1
2.3	x	Cc1ccc(Cn2ccc(NC(=O)c3cc(-c4ccc(Cl)cc4)on3)n2)cc1
1.4	x	Cc1cc(C)n(-c2nc3ccccc3[nH]c2=O)n1
0.8	i	N#C/C(C(=O)c1ccccc1)=C1/CCCN1
-1.4	i	COCc1cc(C)nc(Nc2ccc(C)cc2C)c1C#N
-1.6	x	CCOc1nc(N(C)C)nc(-n2nnc(C(C)=O)c2C)n1
-0.7	i	Cc1ccc(C)c(C(=O)CC2(O)C(=O)N(C)c3ccccc32)c1 (configuration not stated)
1.5	x	Cc1nn(C)c(C)c1S(=O)(=O)N1CCc2ccccc21
-1.6	x	Cn1nc(CC(=O)NC2CCCCCC2)c2ccccc2c1=O
-0.6	i	CC1CCC(NC(=O)C2CCN(c3cnccn3)CC2)CC1 (configuration not stated)
u	i	COc1cccc2c1C(=O)c1c(O)c3c(c(O)c1C2=O)C[C@@](O)(C(C)=O)C[C@@H]3O[C@H]1C[C@H](N)[C@H](O)[C@H](C)O1
-1.6	i	CCOc1ccc(NS(=O)(=O)c2ccc(OCC(=O)N3CCCC3)cc2)cc1
3.0	i	Cc1cc2oc(=O)cc(CN3CCN(Cc4ccc5c(c4)OCO5)CC3)c2cc1C
0.4	x	Cc1nnc(NC(=O)CCCCCN2C(=O)C3C4C=CC(C4)C3C2=O)s1 (configuration not stated)
-0.6	i	O=C(c1ccc(Br)o1)N1CCN(c2ccc3nnc(-c4ccccc4)n3n2)CC1
-2.6	i	COc1ccc(Cl)cc1-c1n[nH]c(=S)o1
2.9	x	CCn1c(=O)n(CC(=O)NC2CCCC(C)C2C)c(=O)c2ccccc21 (configuration not stated)
1.5	x	CCOc1ccc(C2c3c(oc4cc(C)c(C)cc4c3=O)C(=O)N2CCCN2CCOCC2)cc1 (configuration not stated)
-0.3	x	Cc1nc2ccccc2c2oc(C(=O)NCC3CCCO3)cc12 (configuration not stated)
-1.2	i	O=C(c1cccs1)N1CCc2ccccc21
2.1	x	CCOc1ccc(Cc2nc(C)c(CC(=O)N3CCOCC3)c(=O)[nH]2)cc1
2.2	x	CCCCOC(=O)C1CCCC(C(=O)OCCCC)N1 (configuration not stated)
-0.8	x	COc1ccc(-c2nnc(Nc3nc4c(OC)cccc4s3)o2)cc1
1.0	i	CC(C)NCC(O)COc1ccc(CCOCC2CC2)cc1 (configuration not stated)
0.4	i	O=C1CC(Cc2ccccc2)C(=O)N1CCCn1ccnc1 (configuration not stated)

# Gathered by group: the entries above with a furan ring, fused or not
Proteasome disasm	VCAM-1 rise	SMILES
1.7	x	COc1cc(NC(=O)Cc2ccc(Cl)cc2)ccc1NC(=O)c1ccco1
-0.5	x	Cc1ccc(C(=O)Nc2c(C(=O)NCc3ccco3)cnn2-c2ccccc2)cc1
-1.1	x	COCCN1C(=O)c2ccccc2C(C(=O)NCc2ccco2)C1c1c[nH]c2ccccc12 (configuration not stated)
0.3	x	Cc1[nH]nc2c1C(c1ccc(OC(=O)c3ccco3)cc1)C(C#N)=C(N)O2 (configuration not stated)
-0.2	i	CC(NC(=O)c1ccco1)C(c1cccs1)N1CCN(c2ccc(F)cc2)CC1 (configuration not stated)
-0.6	i	O=C(c1ccc(Br)o1)N1CCN(c2ccc3nnc(-c4ccccc4)n3n2)CC1
-0.3	x	Cc1nc2ccccc2c2oc(C(=O)NCC3CCCO3)cc12 (configuration not stated)

# The list continues:
Proteasome disasm	VCAM-1 rise	SMILES
0.6	x	O=C(CCCn1c(=S)[nH]c2cc3c(cc2c1=O)OCO3)N1CCN(c2ccccc2)CC1
1.1	i	O=C(NCc1ccco1)C1CCN(C(=O)c2cc3sccc3n2Cc2ccc(F)cc2)CC1
-0.4	i	COC(=O)c1ccccc1NC(=O)CC(NCc1ccccc1)C(=O)O (configuration not stated)
3.6	x	O=C(Oc1nsnc1N1CCOCC1)N(c1ccccc1)c1ccccc1
-3.7	i	OC(CN1CCOCC1)Cn1c(-c2cccc(Cl)c2)nc2ccccc21 (configuration not stated)
0.1	i	CCOC(=O)C1CCN(CC(=O)c2c(C)[nH]c3ccccc23)CC1
2.1	i	O=C(COC(=O)C12CC3CC(CC(C3)C1)C2)NCc1ccco1
-0.1	i	COC(=O)c1ccc(CSc2nc3c(cnn3-c3ccc(C)c(C)c3)c(=O)[nH]2)o1
1.0	i	COc1ccc(-c2coc3c(CN4CCCCC4)c(O)c(CN4CCCCC4)c(O)c3c2=O)cc1
0.3	x	COc1cc(N2C(=O)NC3CC2(C)Oc2ccc(Br)cc23)cc(OC)c1OC (configuration not stated)
-0.2	x	COc1cc2c(cc1OC)C(C(=O)NCc1ccco1)C(c1cccs1)N(C)C2=O (configuration not stated)
2.3	x	CC(C)CCN1CC(C(=O)NCCC2=CCCCC2)CC1=O (configuration not stated)
-0.1	x	COc1cc(OC)c2c(C)c(Cl)c(=O)oc2c1
-0.7	x	N#CCSc1nc2cc(C(=O)N3CCCC3)ccc2c(=O)n1Cc1ccccc1
1.4	x	COC(=O)c1cc2sccc2n1CC(=O)Nc1cccc(SC)c1
-2.4	x	Cc1ccc(OCCn2cc(/C(N)=N/O)c3ccccc32)cc1C
-0.2	x	CCCCC(=O)N(c1ccc(OCC)cc1)C1C=CS(=O)(=O)C1 (configuration not stated)
-1.4	i	Cc1ccc(F)cc1NC(=O)C1CCCN(c2ncccn2)C1 (configuration not stated)
0.1	i	CC1CCN(C(=O)c2cc(-c3ccc(Cl)c(Cl)c3)on2)CC1
1.2	x	O=C(c1ccc2c(c1)N(Cc1ccccc1)C(=O)CS2)N1CCOCC1
-0.4	i	O=S(=O)(NCC1CCCO1)c1cc(Cl)ccc1Br (configuration not stated)
-0.3	i	Cc1cc(NC(=O)c2ccc3c(c2)C(=O)N(Cc2cccnc2)C3=O)no1
1.2	i	COc1ccc(OC)c(S(=O)(=O)N2CCC(C(=O)NCC3CCCO3)CC2)c1 (configuration not stated)
3.0	x	Cc1nc2c(C(=O)N3CCCC3)c[nH]n2c(=O)c1Cc1ccc(F)cc1Cl
1.8	x	O=C1Nc2ccccc2C(O)(C(=O)NCc2ccco2)N1c1ccc(Cl)cc1 (configuration not stated)

# Among those listed so far, these have a tert-butyl group:
Proteasome disasm	VCAM-1 rise	SMILES
-1.1	x	CC(C)(C)OC(=O)N1CCNc2ccccc2C1
-1.5	x	Cn1c(CCNC(=O)C(C)(C)C)nc2ccccc21

# Other structures:
Proteasome disasm	VCAM-1 rise	SMILES
-1.0	x	CC1CCCCC1n1c(=S)[nH]c2ccccc2c1=O (configuration not stated)
-0.1	x	CCCS(=O)(=O)N1CCC(C(=O)NCc2cccnc2)CC1
-1.7	x	O=C1NCCN1C(=O)c1ccccc1F
-0.4	x	CCCCOC(=O)CSCC(=O)Nc1cc(C)on1
0.3	i	CCOC(=O)c1cc(-c2ccc(Cl)s2)nc2c1c(C)nn2C
-1.0	i	CCCN1C(=O)SC(CC(=O)Nc2ccc(Br)cc2)C1=O (configuration not stated)
-3.1	i	Cc1ccc(C)c(-n2nnnc2SCC(=O)NCCC2=CCCCC2)c1
3.4	i	CCC(=O)Nc1cccc(Br)c1
8.8	i	O=C(NCc1ccccc1)C1CCCN(S(=O)(=O)c2cccnc2)C1 (configuration not stated)
2.3	i	CCCc1nc(NCc2ccncc2)c2nnn(Cc3ccccc3F)c2n1
-1.4	i	Cc1cc(S(=O)(=O)n2cnc3ccccc32)c(C)cc1Cl
0.1	x	Cc1cc(N2CCN(C3CCCCC3)CC2)n2nc(C)nc2n1

# An excerpt from above in order of their number in Proteasome disasm, smallest number first.
smiles	Proteasome disasm
O=C(CCN1C(=O)C2C3C=CC(C3)C2C1=O)NCC1CCCO1 (configuration not stated)	-2.2
CC1CCN(C(=O)c2cc(-c3ccc(Cl)c(Cl)c3)on2)CC1	0.1
CCOc1ccc(OCC)c(NC(=O)CN(C)S(=O)(=O)c2cnc[nH]2)c1	0.7
CCOC(=O)CSC1=NC(=O)CS1	0.8

# This is a subset; rates above refer to the full screens.
